Sa ugtP lethal: kills S. aureus RN4220 lacking UgtP. S. aureus RN4220 ugtP deletion, OD600 growth, 16 h; some inactives read as strong as hits. growth inhibition, % (concentration not given with the values). 330,000 compounds, 0.54% hits;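 active = z-score under -3 and OD600 up to 0.15 on both plates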;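 also: plate controls were untreated wells for no effect and antibiotic for full effect; wells of about 80 µL received 100 nL stock; the first replicate is given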
PrP 5UTR inh: suppresses PrP 5' UTR mRNA reporter expression; cell-based PrP 5' UTR mRNA reporter, plate reader; 340,000 compounds, 0.35% hits; inhibition, % (no concentration beside the values); AID 488862;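 active = every replicate at 50% or more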;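 also: 0 = median of the neutral control wells; tested in H4 reporter cells; numbers are from one replicate; inactives centre near -14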
BJeLR viability: kills HRASV12-expressing BJeLR cells. BJeLR (HRASV12) viability, CellTiter-Glo ATP luminescence, 48 h; reference of the scale not given here. inhibition, % (concentration not given with the values). 300,000 compounds, 0.17% hits;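 active = replicate mean above 50%; inconclusive = above 50% but judged a plate artefact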;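 also: 50 nL library stock added to about 25 µL; numbers are from one replicate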
RN4220 kill: kills Staphylococcus aureus RN4220; 330,000 compounds, 0.33% hits; AID 1259311; S. aureus RN4220 growth, OD600, 16 h; inhibition, % (no concentration beside the values);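 active = z-score of -3 or lower and OD600 up to 0.18 on both plates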;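 also: plate controls were untreated cells for no effect and reference antibiotic for full effect; stock transfer was 100 nL into about 80 µL; one replicate is shown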
Autofluor counter: counter-screen for toxin protease inhibitors: compound fluorescence | compound autofluorescence counterscreen, microsphere flow cytometry; active compounds read high | fluorescence intensity (concentration not given with the values) | 360,000 compounds, 3.1% hits | AID 624483;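 active = at least 3 SD above the mean of all compounds, about 16000 in these data; inconclusive = too few beads counted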;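 also: 100 nL of 1 mM stock went into each well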
Mtb hypoxia rep: reduces hypoxia-regulated biosensor signal in M. tuberculosis | M. tuberculosis hypoxia-regulated fluorescent reporter, fluorescence | fluorescence inhibition, % (test concentration not listed) | 300,000 compounds, 0.1% hits | AID 1159583;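 active = 35 to 45% if threefold the growth effect, above 45% if 1.5-fold the growth effect; inactive = the rest, general growth blockers included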;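 also: wells of about 50 µL received 100 nL stock; 0% = vehicle wells and 100% = reference inhibitor wells; whole bacteria with a GFP reporter of the hypoxia response; strong numbers were not always called active; many hits fall short of the cut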
Mtb hypoxia rep growth: further read-out of Mtb hypoxia rep, marked with its call; growth inhibition, %; measured here: M. tuberculosis growth (absorbance);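 0% = vehicle and 100% = reference antibiotic; read after six days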
Numbers without * were called inactive; ? = inconclusive; . = not tested or not shown.

SMILES	Sa ugtP lethal	PrP 5UTR inh	BJeLR viability	RN4220 kill	Autofluor counter	Mtb hypoxia rep	Mtb hypoxia rep growth
CN(C)C(CNC(=O)c1cc(S(=O)(=O)N(C)Cc2ccccc2)ccc1Cl)c1ccco1 (configuration not stated)	-1	-10	4	-2.0	5161	-6	3
COc1ccc(/C=C/c2nc(S(=O)(=O)c3ccccc3)c(N(C)C)o2)cc1OC	-1	0	1	1.4	5801	-11	-2
CCOC(=O)/C=C/C(=O)Nc1ccccc1C(=O)NC1CCCCC1	-8	-28	1	3.6	2654	.	.
Cc1cc(Br)ccc1NC(=S)Nc1cccc([N+](=O)[O-])c1	-42	2	9	-0.6	9595	10	6
Oc1ccc(N=Nc2ccc3ccccc3c2)cc1	99*	-80	7	99*	3491	4	7
CC1CC(C)CN(S(=O)(=O)c2cccc(C(=O)N3C(=O)c4cccc(N)c4C3=O)c2)C1 (configuration not stated)	-5	-11	-11	5.3	4063	-4	11
CCCCOc1ccc(C(=O)NCC(=O)NCCOc2ccc(C)cc2)cc1	5	-3	.	2.7	4090	8	8
CCn1cc(C(=O)N[C@@H](C)C(=O)NCCO)c(=O)c2cc3c(cc21)OCO3	4	-17	-13	0.3	3555	6	-1
COc1ccc(Cl)cc1NC(=O)c1cnc2n(c1=O)CCS2	4	-37	0	1.7	5718	17	8
OC(CNCc1cccc(Br)c1)c1ccccc1 (configuration not stated)	11	-5	5	3.8	5220	7	-9
COC(CNC(=O)c1ccc2nc(-c3cccs3)c(-c3cccs3)nc2c1)OC	23	-5	5	7.8	8849	10	10
CC(C)C(NS(=O)(=O)c1cc(C(=O)O)ccc1Cl)C(=O)O (configuration not stated)	6	-35	1	9.6	3721	9	13
Cc1ccc(/C=C/C(=O)NCCc2cccc(Cl)c2)o1	8	-40	-5	6.7	.	15	7
CC1CCCN(S(=O)(=O)c2ccc(Cl)s2)C1 (configuration not stated)	3	-11	5	3.3	3621	3	-15
CCOc1cc(CN2CCc3c([nH]c4ccccc34)C2)ccc1OC	5	0	10	-1.5	4588	13	12
COc1cccc(C=NNC(=O)c2ccc(=O)n(C)c2)c1O	7	.	.	1.4	.	10	-2
CN1CCc2c(n(CC(O)CN3C(=O)c4ccccc4S3(=O)=O)c3ccccc23)C1=O (configuration not stated)	-9	-1	.	1.2	2397	.	.
CCOc1ccc2oc(C(=O)NCc3ccccc3CN3CCCC3)c(C)c2c1	14	10	.	-4.4	5713	20	15
CC(C)(C)SCCNC(=O)/C=C/c1ccccc1	2	.	2	1.2	5923	9	9
CCCC12CN3CC(CCC)(CN(C1)C3c1ccco1)C2=O (configuration not stated)	-1	-8	-16	2.8	4275	5	-4
CC(C)N(C(=O)Cn1cc(S(=O)(=O)CC(=O)Nc2ccccc2)c2ccccc21)C(C)C	-2	-9	0	-1.3	6294	-2	8
COc1ccccc1NC(=O)CCN1C(=O)c2ccccc2C1=O	1	-19	-11	2.8	3571	7	-1
Cc1ccc(S(=O)(=O)Nc2ccc(N(C)C)cc2)cc1	11	0	2	7.8	2782	21	19
CCSc1ccc(-c2cccc([N+](=O)[O-])c2)nn1	2	-58	2	3.8	4633	5	10
COc1ccc(C2C3C(=O)N(C(C)(C)C)C(=O)C3[C@]3(Cc4ccccc4)C(=O)N(c4ccc(C)cc4)C(=O)N23)cc1 (some centres not stated)	-11	.	.	6.3	.	6	8

An excerpt from above, showing only RN4220 kill and Mtb hypoxia rep growth:
SMILES,RN4220 kill,Mtb hypoxia rep growth
CN(C)C(CNC(=O)c1cc(S(=O)(=O)N(C)Cc2ccccc2)ccc1Cl)c1ccco1 (configuration not stated),-2.0,3
COc1ccc(/C=C/c2nc(S(=O)(=O)c3ccccc3)c(N(C)C)o2)cc1OC,1.4,-2
CCOC(=O)/C=C/C(=O)Nc1ccccc1C(=O)NC1CCCCC1,3.6,.
Cc1cc(Br)ccc1NC(=S)Nc1cccc([N+](=O)[O-])c1,-0.6,6
Oc1ccc(N=Nc2ccc3ccccc3c2)cc1,99*,7
CC1CC(C)CN(S(=O)(=O)c2cccc(C(=O)N3C(=O)c4cccc(N)c4C3=O)c2)C1 (configuration not stated),5.3,11
CCCCOc1ccc(C(=O)NCC(=O)NCCOc2ccc(C)cc2)cc1,2.7,8

(more compounds)
SMILES	Sa ugtP lethal	PrP 5UTR inh	BJeLR viability	RN4220 kill	Autofluor counter	Mtb hypoxia rep	Mtb hypoxia rep growth
COc1ccc(O)c(-c2c(-c3ccc(Cl)cc3)n[nH]c2C)c1	3	-15	9	4.5	3348	-4	-1
CC(C)(C)C(=O)Oc1ccc2cc(-c3ccc4ccccc4n3)c(=O)oc2c1	5	-15	-7	8.3	10791	2	-1
Cc1ccc(S(=O)(=O)c2c(COC(=O)c3ccccc3Cl)c(-c3ccccc3)nn2C)cc1	18	-6	-6	7.6	2368	5	8
Cc1onc(-c2c(Cl)cccc2Cl)c1C(=O)c1c[nH]c(C(=O)NCCCN2CCOCC2)c1	-12	-30	4	9.9	5885	14	10
O=C(c1nnc(Cc2ccc(Cl)cc2)o1)N1CCc2ccccc2C1	5	-17	-6	-1.7	5914	1	8
COc1ccc(-c2nc3ccc([N+](=O)[O-])cc3[nH]2)cc1	6	-32	-21	3.1	2475	12	2
O=C(NCCCn1ccnc1)C(=O)c1c[nH]c2ccccc12	0	-11	-4	3.6	3636	1	2
CC(C(=O)O)N1C(=O)C2C3c4ccccc4C(c4ccccc43)[C@@H]2C1=O (some centres not stated)	10	-21	0	5.2	3403	7	3
O=C(Nc1cccnc1)c1ccccc1Oc1ccccc1	7	-22	-7	1.0	3017	.	.
CC(C)CCNC(=O)C1CCN(c2nc3ccccc3o2)CC1	6	-11	9	0.7	16365*	7	13
COc1ccc(C2(C(=O)Nc3ccc(S(=O)(=O)Nc4nc(C)cc(C)n4)cc3)CCCC2)cc1OC	0	-11	6	1.4	2629	-1	-1
c1ccc(-c2noc(CN3CCN(c4ccccc4)CC3)n2)cc1	1	-15	7	9.8	5649	.	.
Cc1ccc(-c2nc(CS(=O)CC(=O)NCCN3CCOCC3)c(C)o2)cc1 (configuration not stated)	-12	-2	-13	-8.1	5622	4	8
C#CC(C)OC(=O)C(C)NC(=O)c1ccccc1 (configuration not stated)	2	-18	8	6.7	4085	2	-2
Cc1ccc2c(c1)CCCN2CC(=O)Nc1cccc(S(=O)(=O)N2CCCC2)c1	11	-23	.	6.0	6377	10	7
Cc1ccnc2nc(C(=O)OCC(=O)NCCc3ccc(Cl)cc3)nn12	5	-30	-27	3.1	7745	5	12
CCOC(=O)c1sc(N=Cc2ccc(O)cc2O)cc1C	5	.	.	3.8	.	11	2
CC(C)C(=O)Nc1ccccc1C(=O)NN=Cc1ccc([N+](=O)[O-])cc1	-3	.	.	1.9	.	3	5
CN(C)CCCNC(=S)N(CCO)Cc1cc2cc3c(cc2[nH]c1=O)OCO3	16	-23	-5	3.7	3624	4	6
COc1cccc(S(=O)(=O)NCc2ccc(C(=O)NCc3ccco3)cc2)c1	11	-8	19	6.0	25859*	0	0
COC(=O)c1cn(NC(=O)COc2ccc(Cl)cc2)c(=O)c2ccccc12	4	7	.	4.9	3288	7	-4
Cc1ccc2cc(S(=O)(=O)NCCCN3CCOCC3)ccc2c1	-1	-41	-5	4.9	4685	1	1
O=C(NCCCO)c1nc2ccccc2s1	7	-11	15	3.8	4537	.	.
CCN1CCN(c2c(Cl)cccc2NC(=O)c2ccc([N+](=O)[O-])o2)CC1	.	-11	1	.	6040	.	.
Cc1noc(C)c1COC(=O)c1cccc(S(=O)(=O)N2c3ccccc3CC2C)c1 (configuration not stated)	4	-6	-6	-0.5	3737	.	.
(list continues)
SMILES	Sa ugtP lethal	PrP 5UTR inh	BJeLR viability	RN4220 kill	Autofluor counter	Mtb hypoxia rep	Mtb hypoxia rep growth
COCCNC(=O)c1c(N)n(/N=C/c2cccs2)c2nc3ccccc3nc12	.	-13	7	.	3346	.	.
COc1ccc(N=Nc2ccc3ccccc3c2)c(O)c1	7	4	5	-15	2930	15	-1
COc1ccc(NC(=O)c2ccc(-n3cccn3)nc2)cc1	5	-11	14	3.6	22260*	0	2
CN(CC(=O)Nc1sccc1C#N)C1CCCCC1	1	-1	-6	-0.8	4722	6	6
N#C/C(=C(/O)COC(=O)c1ccc(C#N)cc1)c1nc2ccccc2s1	-1	-27	-3	4.7	3024	13	10
O=C(NCc1ccncc1)Nc1ccc(F)cc1	-5	-10	11	3.2	3005	8	2
Nc1nc(CN2CCN(C(=O)c3ccco3)CC2)nc(Nc2cccc(Cl)c2)n1	4	-15	.	-8.6	4048	-5	-1
CC(OC(=O)CCCOc1ccccc1)C(=O)Nc1ccc(Cl)cn1 (configuration not stated)	9	-13	-6	2.9	?	13	6
COCCNC(=O)C(c1ccc(C)cc1)N(C(=O)C(=O)NC1CCCC1)c1ccc2c(c1)OCCO2 (configuration not stated)	12	-2	.	1.6	4336	3	8
Cc1ccc(S(=O)(=O)N2CCCCC2)cc1NC(=O)CSc1nc(N)cc(=O)[nH]1	10	-32	.	3.2	4206	7	6
O=C1CCCC2=C1Sc1ccc(Cl)cc1N2	0	-12	6	4.9	5392	2	9
CCOC(=O)N1CCN(Cc2c(NC(=O)c3ccco3)sc(C)c2C)CC1	-5	-21	5	6.0	3923	6	6
Cc1ccccc1NS(=O)(=O)c1ccc2[nH]cc(C(=O)NCCCN3CCOCC3)c(=O)c2c1	-1	-12	-1	-12	3754	18	8
COc1ccc(/C=N/NC(=O)CNc2c(Br)cc(C)cc2Br)c(C(=O)O)c1OC	.	-11	-3	.	2097	.	.
COc1ccc(NC2=C(C(C)=O)C(c3ccc(N(C)C)cc3)C(C(C)=O)C(C)(O)C2)cc1 (configuration not stated)	8	-15	7	0.1	4237	14	0
O=C(Nc1c(Cl)ccc2nsnc12)c1ccco1	-1	-21	-5	1.6	1938	2	5
O=C(CCOc1ccccc1)NNC(=O)c1ccccc1	1	-13	.	-0.6	3872	8	8
O=C(O)c1ccc(N2C(=O)CSC2c2cccc([N+](=O)[O-])c2)cc1 (configuration not stated)	5	-3	-1	0.9	4409	10	-3
O=C(CCNC(=O)c1ccc(Br)cc1)NCCCN1CCOCC1	12	-25	.	4.0	3785	3	0
CC(OC(=O)Cc1c[nH]c2ccccc12)C(=O)c1ccccc1 (configuration not stated)	-4	-5	.	-3.3	2797	0	8
CS(=O)(=O)N1CCN(c2nc3ccccc3s2)CC1	9	-28	-11	3.1	10237	11	4
COc1ccc(-c2noc(CCC(=O)N3CCN(c4ccccc4C(F)(F)F)CC3)n2)cc1	4	-30	.	3.9	3703	-5	3
O=c1c2ccccc2[nH]c(=S)n1CCN1CCCC1	4	-1	7	4.9	2182	21	6
CCn1c(=O)c2c(nc3n2CCN3c2ccccc2)n(C)c1=O	6	-33	7	5.8	3257	10	-2
Cc1n[nH]c(=O)c2c(NC(=O)COC(=O)c3ncc(Cl)c(Cl)c3Cl)oc(C)c12	.	6	-1	.	?	.	.
CN1C(=O)NC(=O)C2(Cc3ccccc3N3CCOCC32)C1=O (configuration not stated)	3	-15	18	-0.6	17659*	3	1
CC(=NN=c1sc2ccccc2n1C)c1ccc(N2CCOCC2)cc1	0	.	.	6.5	.	10	8

5 entries from above, with two lines to a compound:
Values run as follows: Sa ugtP lethal	PrP 5UTR inh	BJeLR viability	RN4220 kill	Autofluor counter	Mtb hypoxia rep	Mtb hypoxia rep growth
> CN(C)CCCNC(=S)N(CCO)Cc1cc2cc3c(cc2[nH]c1=O)OCO3
→ 16	-23	-5	3.7	3624	4	6
> COc1cccc(S(=O)(=O)NCc2ccc(C(=O)NCc3ccco3)cc2)c1
→ 11	-8	19	6.0	25859*	0	0
> COC(=O)c1cn(NC(=O)COc2ccc(Cl)cc2)c(=O)c2ccccc12
→ 4	7	.	4.9	3288	7	-4
> Cc1ccc2cc(S(=O)(=O)NCCCN3CCOCC3)ccc2c1
→ -1	-41	-5	4.9	4685	1	1
> O=C(NCCCO)c1nc2ccccc2s1
→ 7	-11	15	3.8	4537	.	.

Screening data (PubChem)
